Autofluor counter = counter-screen for toxin protease inhibitors: compound fluorescence; compound autofluorescence counterscreen, microsphere flow cytometry; stronger effect = higher value; AID 624483; hit rate 3.1% among 360,000; fluorescence intensity (no concentration beside the values);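 active = at least 3 SD above the mean of all compounds, about 16000 in these data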;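 note: 100 nL of 1 mM stock went into each well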
An asterisk follows results filed as active. The list is partial, so the mix of outcomes need not match the whole.

SMILES	Autofluor counter
CC(C)CC(=O)[C@@H](O)Cc1ccc(O)cc1	5760
Cc1ccc(N(C)S(=O)(=O)c2cccc(C(=O)OCC(=O)N(C)Cc3ccccc3)c2)cc1	4923
Cc1ccc(-c2cnc(C(O)c3cccc(Cl)c3)[nH]2)cc1 (stereo unspecified)	3730
CNC(=O)C[C@H]1C(=O)N(C2CCCCC2)C[C@@H]1c1ccc(Br)cc1	2797
Nc1nc2c(Br)ccc(Br)c2cc1C(=O)NCCc1ccccc1	6046
Brc1ccc2c(c1)-c1ccccc1C1=NCCN12	2902
O=C(NCC1CCCCC1)c1cc(-c2cc(F)ccc2OCC2CCCO2)n[nH]1 (stereo unspecified)	3066
Cc1cc(F)cc(-c2cc(C(=O)NCc3ccco3)[nH]n2)c1	3434
CCCc1nc2ccc(C)cn2c1Cc1ccc(OC)cc1C	4587
Cc1c(C(=O)NCc2ccccc2)sc(=O)n1Cc1ccccc1F	4152
CCc1ccc(/C=C2\SC(=S)N(CCCC(=O)NC3=NCCS3)C2=O)cc1	2869
C[C@H](O)CNC(=O)c1[nH]cnc1C(=O)N[C@@H](C)c1ccccc1	3446
CC1(Cc2ccc(Cl)cc2)C(=O)Nc2ccc(-c3ccc(F)c(Cl)c3)cc21 (stereo unspecified)	4027
O=C(c1cc(Cl)cc(Cl)c1)N1Cc2ccccc2-n2nncc2C1	3601
COC(=O)c1ccc2nc(-c3ccccc3)c(Cc3ccsc3)n2c1	7357
CCc1ccc(NC(=O)CSc2nc(C)cs2)cc1	3705
CCNC(=O)C1(C)CCCN(CCOc2ccc(Cl)cc2)C1 (stereo unspecified)	2870
Cn1c(=O)c2cc(NC(=O)NCCc3ccccc3)ccc2n1Cc1ccc(F)cc1	3382
CN(C)CCN1CCN(C2CN(Cc3cn(Cc4ccc(C(F)(F)F)cc4)nn3)S(=O)(=O)C2)CC1 (stereo unspecified)	5631
CCCOc1ccc(F)cc1-c1cc(C(=O)NCc2ccccc2OC)[nH]n1	3047
CC(C)(CO)CNc1ccn2nccc2n1	3772
COc1ccc(CN2C(=O)C(CC(=O)NCc3cccc4ccccc34)CC(C(=O)N3CCOCC3)=C2C)cc1 (stereo unspecified)	3598
N#CCCN(Cc1ccccc1)C(=O)CCC(=O)c1ccc(F)cc1	3697
CCCCc1c(Cc2cccc(F)c2)ncn1CCc1ccccc1OC	6433
O=C1[C@H]2[C@@H](c3ccc(C(F)(F)F)cc3)N[C@]3(CCCN(Cc4ccc(Cl)cc4)C3=O)[C@H]2C(=O)N1Cc1ccccc1	3015

Further records.
SMILES	Autofluor counter
COC(=O)c1cnc(Nc2nc(C(N)COCc3ccccc3)cs2)nc1C(F)(F)F (stereo unspecified)	4373
COc1ccc(CN2C(=O)C(CC(=O)NCCN3CCOCC3)CC(C(=O)N(C(C)C)C(C)C)=C2C)cc1 (stereo unspecified)	3658
COCCNC(=O)C1(C)CCCN(C(=O)c2cnc3ccccc3n2)C1 (stereo unspecified)	3808
CC(O)(c1ccccc1)c1nc(-c2csc3ccccc23)cs1 (stereo unspecified)	3834
CCCNC(=O)C1(C)CCN(C(=O)c2cccnc2Oc2ccccc2)C1 (stereo unspecified)	3996
CN1C(=O)[C@H]2[C@@H](c3ccc(C(F)(F)F)cc3)N[C@]3(CCCN(CC4CCCCC4)C3=O)[C@H]2C1=O	3557
O=C(NC1CCCCC1)C(CCc1ccccc1)N1CCc2ccccc2C1 (stereo unspecified)	5368
COc1ccc(-n2nnnc2C(c2cc3ccccc3o2)N2CCN(C/C=C/c3ccccc3)CC2)cc1 (stereo unspecified)	5587
CCOC1CCCc2oc(-c3ccc(OC)cc3)c(C#CCCO)c21 (stereo unspecified)	6077
CCCCn1nnnc1C(c1cc2ccccc2o1)N1CCN(C(=O)OCC)CC1 (stereo unspecified)	4529
C[C@@H]1CCCCO[C@H](CN(C)Cc2ccc3c(c2)OCO3)[C@@H](C)CN([C@H](C)CO)C(=O)c2cc(NC(=O)c3ccccc3)ccc2O1	3912
CCCOc1ccc(F)cc1-c1cc(C(=O)NCc2ccc(F)cc2)[nH]n1	3974
CC(=O)Nc1cncc(-c2cccc(C(=O)NCCN(C)C)c2)n1	3874
NC(=O)Cc1ccc(OCc2nn[nH]n2)cc1	3842
CCOC(=O)[C@]12CCC=C1N(Cc1cccc3ccccc13)C(=O)[C@H](CC(=O)NCc1ccc(OC)c(OC)c1)C2	6236
CNc1cccc(-c2c(OC)cccc2OC)n1	3768
CC1=C(C(=O)N(C(C)C)C(C)C)CC(CC(=O)NC2CCCCC2)C(=O)N1Cc1ccccc1 (stereo unspecified)	3540
COc1ccc(CN2C[C@@H](CO)O[C@@H](n3cnc4c(N5CCOCC5)ncnc43)C2)cc1	3690
Cc1ccccc1Cn1c(C)c(C(=O)NCc2ccc(Cl)c(Cl)c2)sc1=O	5207
Cc1c(NC(=O)c2cc3ccccc3o2)cccc1-n1cnnn1	3842
CCCS(=O)(=O)NC(=O)C1(C)CCN(C(=O)c2cc(C)nn2C(C)(C)C)C1 (stereo unspecified)	3520
COc1ccccc1S(=O)(=O)N(C)C[C@H]1OCc2cnnn2CCCC(=O)N([C@@H](C)CO)C[C@H]1C	3828
CCOC(=O)[C@]12CCCC=C1N(Cc1cccc3ccccc13)C(=O)[C@H](CC(=O)N1CCSCC1)C2	6397
COc1ccc(-c2ccc(C(=O)Nc3cc(OC)c(OC)c(OC)c3)c3occc23)c(C)c1	3184
COc1ccc(OC)c(CN2C(=O)CCC2(C)c2nnnn2Cc2ccccc2)c1 (stereo unspecified)	5847

The list goes on:
SMILES	Autofluor counter
Cc1ccccc1NC(=O)Cc1nc(COC(=O)C(C)(C)Oc2ccc(Cl)cc2)cs1	3691
COc1cccc(-c2cccc3c2NC(=O)C3(C)Cc2ccccc2F)c1 (stereo unspecified)	2948
CC(C)c1ccc(CNC(=O)C2(C)CCCN2C)cc1 (stereo unspecified)	4142
CCOC(=O)C1(C)CCCN(C(=O)c2cc(F)ccc2C)C1 (stereo unspecified)	3701
Cc1cccc(C(=O)N2CCC[C@H]2C(=O)N2CCC[C@H]2C(=O)NCc2ccncc2)c1	6161
CC(C)N(C)c1ncnc2c1ncn2[C@H]1CN(Cc2ccncc2)C[C@@H](CO)O1	2714
CSc1ccc(/C=N/NC(=O)c2ccc3nc[nH]c3c2)cc1	3439
C[C@H](O)[C@@H]1CN2CCc3c([nH]c4ccccc34)[C@@H]2C[C@@H]1N(C)C(=O)c1ccco1	6588
COc1ccc(CNC(=O)N2[C@H]3CC[C@@H]2C=C(c2ccc(F)cc2OCc2ccccc2)C3)cc1OC	3762
CCCCn1c(=S)[nH]c2c(=O)n(C)c(=O)n(C)c21	4032
FC(F)(F)Oc1ccccc1C(c1nnnn1Cc1ccccc1)N1CCN(C/C=C/c2ccccc2)CC1 (stereo unspecified)	4348
CC(C)Oc1ccc(S(=O)(=O)N2CCOCC2)cc1NC(=O)CSc1nnc(C2CC2)n1C	3335
Cc1cccc2cc(C#N)c(NCCNC(=O)c3ccccc3)nc12	4034
Cc1cccc(C)c1NC(=O)C(c1ccccc1)N1CCN(c2ccc(F)cc2)CC1 (stereo unspecified)	5629
CC(C)=CCC[C@H](C)C[C@@H]1CC2=C(C(=O)OC(C)(C)O2)[C@H](c2ccc(F)cc2)O1	5823
Cc1ccc(S(=O)(=O)N(C)C[C@@H]2Oc3ncc(Br)cc3C(=O)N([C@H](C)CO)C[C@@H]2C)cc1	3790
CCCCCC(=O)N1C[C@H](n2cc(COC(=O)c3ccccc3)nn2)[C@@H](O)C[C@@H]1c1ccc(Cl)cc1	2892
Cc1cccc(NC(=O)CCS(=O)(=O)c2ccc3nc(C)sc3c2)c1	5505
Cc1nnsc1C(=O)N1CCCC1(C)C(=O)O (stereo unspecified)	3883
Cc1ccccc1-c1cnc(C(O)c2c(C)ccc3ccccc23)[nH]1 (stereo unspecified)	2806
C[C@@H]1CN([C@@H](C)CO)C(=O)CCCn2nncc2CO[C@H]1CN(C)Cc1ccccc1C(F)(F)F	2966
CC(=O)NCCNC(=O)C1(C)Cc2c(-c3ccccc3)ccnc2O1 (stereo unspecified)	3628
Cc1ccc(S(=O)(=O)N2C[C@H]3C(=O)C[C@@H](c4cccs4)N(S(=O)(=O)c4ccc(C)cc4)[C@H]3C[C@H]2c2ccccc2)cc1	4069
CCOC(=O)C1(C)CCCN(C(=O)C(c2ccccc2)c2ccccc2)C1 (stereo unspecified)	3483
COCCCN1C(=O)C(CC(=O)NC2CC2)CC(C(=O)N(C(C)C)C(C)C)=C1C (stereo unspecified)	5581

New compounds follow:
SMILES	Autofluor counter
CCOc1ccccc1NC(=O)CCNC(=O)C1CCN(S(=O)(=O)c2ccccc2)CC1	4100
Cc1cccc(S(=O)(=O)N(C)C[C@@H]2OCc3cn(nn3)CCCC(=O)N([C@H](C)CO)C[C@H]2C)c1	3931
Cc1cc(Cl)ccc1C(O)c1ncc(-c2cccc(F)c2)[nH]1 (stereo unspecified)	2978
CCOC(=O)[C@]12CCCC=C1N(Cc1ccc3c(c1)OCO3)C(=O)[C@H](CC(=O)N1CCN(C(=O)C3CC3)CC1)C2	5046
C[C@@H]1CN([C@H](C)CO)C(=O)CCCn2nncc2CO[C@H]1CN(C)C(=O)Nc1cccc(Oc2ccccn2)c1	3264
O=[N+]([O-])c1ccc(NN=C(C2CC2)C2CC2)c([N+](=O)[O-])c1	3885
COc1cc(CN2C[C@@H](CO)O[C@@H](n3cnc4c(NCc5ccco5)ncnc43)C2)cc(OC)c1OC	3918
CC(C)c1ccc(C(=O)N2CCCC(c3cc(C(=O)Nc4ccc5c(c4)OCO5)no3)C2)cc1 (stereo unspecified)	3529
CCOC(=O)CCCCCC(=O)Nc1ccc2c(c1)C(=O)N([C@H](C)CO)C[C@H](C)[C@@H](CN(C)C(=O)Nc1ccccc1)OCCCC[C@@H](C)O2	2976
CCNC(=O)N(C)c1c(CC)nc2ccc(C(=O)Nc3cccc(OCC(=O)N(C)C)c3)cn12	3952
CC(=O)Nc1ccc(-c2ccnc3c2CC(C)(C(=O)NCc2cccc(Cl)c2)O3)cc1 (stereo unspecified)	3152
CCc1nc2c(OCC(=O)c3ccc(F)cc3)cccn2c1N(C)C(=O)COc1ccccc1	3684
CNc1cnc(-c2ccc(C(=O)N3CCOCC3)cc2)cn1	3942
CCc1ccc2cc(C)cc(C)c2n1	5627
Cc1ccc(SCc2c(C(=O)N/N=C/c3cccs3)nnn2-c2nonc2N)cc1	3115
COc1ccc(C(=O)Cn2c(NCCCO)nc3ccccc32)cc1	3087
C#CCN(C[C@@H]1[C@@H](OC(=O)NCCCCCC)[C@@H](OC(=O)NCCCCCC)Cn2c(=O)ccc(=O)n21)S(=O)(=O)c1ccc(C)cc1	3865
Cc1ccc(NC(=O)c2sc3nc(N4CCOCC4)c4c(c3c2N)CCCC4)cc1	3644
CCOC(CNC(=O)c1[nH]c(C(F)(F)F)nc1-c1ccccc1)OCC	6087
CCc1nc2ccc(C(=O)NCCOc3ccc(OC)cc3)cn2c1N(CC)Cc1cccc(Br)c1	3751
OC(c1cccc(Cl)c1)c1nc(-c2csc3ccccc23)cs1 (stereo unspecified)	3205
CC(C)Nc1nc(Nc2ccc(C#N)cc2)c2sccc2n1	3811
c1ccc(OCCNc2ccn3nc(-c4ccccc4)cc3n2)cc1	3088
Cc1nc2nc(C(F)(F)F)[nH]c2nc1C	4015
O=C(NNc1ccccc1)OCc1ccccc1	3979

(further entries)
SMILES	Autofluor counter
Cc1nc(C(F)(F)F)ccc1C(=O)N1CCC1(C)C(=O)Nc1ccc2c(c1)OCO2 (stereo unspecified)	3607
CCCC[C@@H]1Cc2[nH][nH]c(=O)c2[C@H](c2ccc3ccccc3c2)O1	5699
CCOC(=O)[C@]12CCC=C1N(Cc1ccco1)C(=O)[C@H](CC(=O)NCc1ccc(C)o1)C2	5010
O=C(O)c1ccccc1-c1ccccc1C(=O)Nc1ccc2c(c1)C(O)c1ccccc1-2 (stereo unspecified)	3650
CN1CCN(C(=O)C[C@@H]2C[C@H]3c4cc(NC(=O)c5cccnc5)ccc4O[C@H]3[C@H](CO)O2)CC1	3847
O=C(Cc1csc2ccccc12)NCC1CC1	6328
COCCNc1nc(NCCCN2CCCC2=O)c2sc(-c3ccccc3)cc2n1	3905
CCCS(=O)(=O)NC(=O)C1(C)CCN(C(=O)c2ccc(F)c(Cl)c2)C1 (stereo unspecified)	2947
Cc1ccc(C(=O)Nc2ccc3nc(C)sc3c2)o1	3728
c1ccc(-c2nnc3oc(-c4cccs4)nn23)cc1	3733
Nc1ncnc2c1ncn2[C@@H]1O[C@H](C(=O)NS(=O)(=O)c2c(Cl)nc3sccn23)[C@@H](O)[C@H]1O	3979
COC(=O)c1ccc2nc(-c3ccc(Cl)cc3)c(Cc3cccc(F)c3)n2c1	6337
CN1CCN(c2ccc(-c3cc(NC=O)c4ncc(-c5ccccc5)n4c3)cc2)CC1	4294
N#Cc1ccc(C(S(=O)(=O)Cc2ccccc2)S(=O)(=O)Cc2ccccc2)cc1	3816

No new results follow: entries from further up.
SMILES	Autofluor counter
c1ccc(OCCNc2ccn3nc(-c4ccccc4)cc3n2)cc1	3088
Cc1nc2nc(C(F)(F)F)[nH]c2nc1C	4015
O=C(NNc1ccccc1)OCc1ccccc1	3979
Cc1nc(C(F)(F)F)ccc1C(=O)N1CCC1(C)C(=O)Nc1ccc2c(c1)OCO2 (stereo unspecified)	3607
CCCC[C@@H]1Cc2[nH][nH]c(=O)c2[C@H](c2ccc3ccccc3c2)O1	5699
CCOC(=O)[C@]12CCC=C1N(Cc1ccco1)C(=O)[C@H](CC(=O)NCc1ccc(C)o1)C2	5010
O=C(O)c1ccccc1-c1ccccc1C(=O)Nc1ccc2c(c1)C(O)c1ccccc1-2 (stereo unspecified)	3650
CN1CCN(C(=O)C[C@@H]2C[C@H]3c4cc(NC(=O)c5cccnc5)ccc4O[C@H]3[C@H](CO)O2)CC1	3847
O=C(Cc1csc2ccccc12)NCC1CC1	6328
COCCNc1nc(NCCCN2CCCC2=O)c2sc(-c3ccccc3)cc2n1	3905
CCCS(=O)(=O)NC(=O)C1(C)CCN(C(=O)c2ccc(F)c(Cl)c2)C1 (stereo unspecified)	2947
Cc1ccc(C(=O)Nc2ccc3nc(C)sc3c2)o1	3728
c1ccc(-c2nnc3oc(-c4cccs4)nn23)cc1	3733
Nc1ncnc2c1ncn2[C@@H]1O[C@H](C(=O)NS(=O)(=O)c2c(Cl)nc3sccn23)[C@@H](O)[C@H]1O	3979
